HEK293 tox – Cytotoxic Profiling in HEK 293 Cell Line of Diverse Libraries Using Quantitative High-Throughput Screening; HEK 293 viability, ATP luminescence (CellTiter-Glo), 48-72 h; 6.6% of 94,000 active; Potency, µM (series often up to 115 µM), for inactives: at the highest dose activity change, negative = cytotoxicity, hits mostly inhibitors; also: potency is read from the fitted curve at half-maximal effect; nearly all actives have a fitted effect of over 60% in size
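Viability of HEK 293 cells, plated at 250 cells/well, was judged by cellular ATP after compound treatment for 48 or 72 hr. Luminescence was imaged 10 min after CellTiter-Glo addition at room temperature.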
NIH3T3 tox – Cytotoxic Profiling in NIH 3T3 Cell Line of Diverse Libraries Using Quantitative High-Throughput Screening; NIH 3T3 viability, CellTiter-Glo ATP luminescence, 48-72 h; Potency, µM (highest dose often 96.7 µM), without a hit: at the top dose activity change, negative = cytotoxicity, actives largely listed as inhibitors; 4.3% of 94,000 active; also: potency is read from the fitted curve at half-maximal effect; nearly all actives have a fitted effect of over 55% in size
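Luminescent ATP readout (CellTiter-Glo, 10 min RT) after 48 or 72 hr compound exposure of NIH 3T3 cells seeded at 400 cells/well in 1536-well format; quantitative HTS.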
SNCA expr inhib – Primary qHTS assay for inhibitors of alpha-synuclein gene (SNCA) expression; HEK-293 SNCA-luciferase knock-in, luminescence, 24 h; Potency, µM (titrated, usually from 57.2 µM), for inactives: at the highest dose activity change, negative = inhibition, actives largely listed as inhibitors; 0.17% of 140,000 active;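 also: potency is read from the fitted curve at half-maximal effect; plate controls were DMSO cells for no effect and cell-free wells for full effect; nearly all actives have a fitted effect of over 45% in size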
IP6K1 inh – Primary qHTS assay for small molecule inhibitors of Inositol hexaphosphate kinase 1 (IP6K1); Inositol hexakisphosphate kinase 1 (Homo sapiens), Q92551; IP6K1 kinase, ADP-Glo luminescence, 2 h; hits give low values; activity change, % (series mostly up to about 58 µM); 0.81% of 140,000 active; in the data active = activity change below about -25%
Target sequence (Q92551 whole entry, looked up): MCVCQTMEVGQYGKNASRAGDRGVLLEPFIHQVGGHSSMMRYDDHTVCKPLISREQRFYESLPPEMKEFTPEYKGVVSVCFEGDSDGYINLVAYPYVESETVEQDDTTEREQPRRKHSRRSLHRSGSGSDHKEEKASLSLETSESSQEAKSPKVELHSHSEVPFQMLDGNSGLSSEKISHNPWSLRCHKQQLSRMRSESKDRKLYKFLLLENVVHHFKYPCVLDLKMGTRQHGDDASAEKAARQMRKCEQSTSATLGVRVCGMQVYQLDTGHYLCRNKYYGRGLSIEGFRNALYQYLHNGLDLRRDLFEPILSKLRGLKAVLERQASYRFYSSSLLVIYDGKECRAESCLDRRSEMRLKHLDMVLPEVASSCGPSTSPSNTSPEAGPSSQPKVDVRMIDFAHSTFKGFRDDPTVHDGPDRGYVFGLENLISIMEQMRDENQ
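ADP-Glo luminescence measures ADP made by human IP6K1 during a 2 h RT reaction with ATP/IP6 (mix at 1.3 mM/130 uM); top library doses 57.5 and 19.1 uM final.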
HEK293 viab – GF-AFC viability counterscreen for inhibitors of alpha-synuclein gene (SNCA) expression; HEK-293-SNCA-luc viability, GF-AFC fluorescence, 24 h; Potency, µM (titrated, usually from 57.1 µM), inactives show at the top dose activity change, negative = cytotoxicity, most hits filed as cytotoxic; 0.12% of 150,000 active; AID 1671193, 2021;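 also: potency is read from the fitted curve at half-maximal effect; 0% = DMSO-treated cells and -100% = medium-only wells without cells; nearly all actives have a fitted effect of over 30% in size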
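Cytotoxicity counterscreen: after 24 h compound treatment of genome-edited SNCA-luciferase HEK-293 cells, live-cell protease substrate GF-AFC read by fluorescence after 30 min; activity scaled between DMSO (0%) and medium-only (-100%), curves Hill-fitted.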
FLuc inh – Firefly luciferase inhibition profiling of diverse chemical library using quantitative high-throughput screening; Luciferin 4-monooxygenase (Photinus pyralis), P08659; purified P. pyralis luciferase, luminescence, biochemical; Potency, µM (highest dose often 115 µM), for the others: top-dose activity change, negative = inhibition, actives largely listed as inhibitors; 2.5% of 76,000 active; also: potency is read from the fitted curve at half-maximal effect; nearly all actives have a fitted effect of over 65% in size
Target sequence (P08659 whole entry, looked up): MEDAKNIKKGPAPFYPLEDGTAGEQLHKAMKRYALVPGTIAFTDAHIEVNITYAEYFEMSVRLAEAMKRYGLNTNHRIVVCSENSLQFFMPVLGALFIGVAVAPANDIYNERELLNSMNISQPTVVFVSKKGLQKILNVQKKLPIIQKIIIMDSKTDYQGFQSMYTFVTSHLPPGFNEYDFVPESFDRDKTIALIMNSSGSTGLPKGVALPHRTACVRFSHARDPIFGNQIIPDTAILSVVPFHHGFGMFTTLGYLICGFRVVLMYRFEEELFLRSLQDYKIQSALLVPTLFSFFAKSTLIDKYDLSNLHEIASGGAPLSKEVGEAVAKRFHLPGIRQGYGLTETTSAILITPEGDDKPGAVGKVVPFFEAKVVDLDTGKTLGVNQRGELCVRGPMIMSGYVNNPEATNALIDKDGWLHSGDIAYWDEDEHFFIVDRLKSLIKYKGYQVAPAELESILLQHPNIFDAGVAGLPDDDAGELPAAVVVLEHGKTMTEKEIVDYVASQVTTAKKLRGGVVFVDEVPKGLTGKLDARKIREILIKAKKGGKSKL
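Luminescence read by CCD imaging after purified firefly luciferase (10nM final) was added to substrate buffer holding 10uM D-luciferin and 10uM ATP, pH 7.5, pre-dosed with compound.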
Numbers without * were called inactive; i = inactive; u = inconclusive; x = no result given; [ ] = remark or other dose. Unless noted, calls follow the shape of the dose curve; as a rule, active = well fitted curve in the direction sought with a large enough effect; inconclusive = small, poorly fitted or top-dose-only effect, or another doubt; inactive = no such curve, though single readings can be large; an effect the other way counts as inactive or inconclusive. Unless noted, % is scaled to controls: 0 for no effect and ±100 for the full control effect. Not all compounds are listed (hit frequency here may not be typical).

mol | HEK293 tox | NIH3T3 tox | SNCA expr inhib | IP6K1 inh | HEK293 viab | FLuc inh
CN1CCC(C(=O)N2CCC3(CC2)CN(S(=O)(=O)c2ccccc2)CCO3)CC1 | -3% | i | 44%[activator] | 1 | 1% | x
CCn1c(CO)nnc1C1CC(NC(=O)CCn2c(=O)[nH]c3ccccc32)C1 (configuration not stated) | -23% | -4% | -12% | 28 | -8% | 1%
Cc1ccc(S(=O)(=O)NC[C@H]2OC[C@@H](N(C)C)[C@@H]2O)cc1 | 4%[172 µM] | -2%[174 µM] | -11%[87.6 µM] | -9 | 6%[87.6 µM] | 3%[172 µM]
CC(C)CC(=O)N1CCC2(CC1)CN(c1ccccc1)C2=O | -6% | -2% | -5% | 5 | 3% | 11%
O=C(O)C[C@@H]1CCN(C(=O)C2CC2)C[C@@H]1CCN1CCN(c2ccccc2)CC1 | i | i | 19%[87.6 µM] | -7 | 1%[87.6 µM] | -3%[172 µM]
O=C(NCc1ccc(F)cc1)N1CCCC(Cc2noc(-c3cnccn3)n2)C1 (configuration not stated) | -1% | -11% | -1% | 2 | -6% | -5%
Cc1ccn(CCC(=O)NCc2cccnc2Oc2ccc(F)c(F)c2)n1 | -7% | i | 13% | 7 | -3% | -4%
CCN1C(=O)Cc2ccccc2C1C(=O)NCc1ccc(C)cc1 (configuration not stated) | -10% | -15% | 10% | 10 | 2% | -1%
O=C(C1Cn2cccc2C(=O)N1Cc1cccnc1)N1CCN(c2ncccn2)CC1 (configuration not stated) | i | i | 1% | -6 | 1% | 9%
COC(=O)CNC(=O)N1CCCCC1c1nc(CCOc2cccc(C)c2)no1 (configuration not stated) | i | -5% | 15% | 3 | 15% | 0%
CC(=O)Nc1ccc(NC(=O)CCNc2c(-c3ccc(F)cc3)nc3cnccn23)cc1 | u | -16% | -4% | 3 | 27% | -1%
COCCN1C[C@H]2CN(C(=O)C3CCC3)C[C@@]2(C(=O)O)C1 | i | 2% | -25% | 4 | 9% | -3%
COc1ccc(F)cc1-c1nc2ccc(-c3ccc(OC)c(OC)c3OC)cc2o1 | u | u | -1% | -2 | 3% | u
CN(C)c1ccc(C(=O)NC2CCN(c3cc(-c4ccc(F)cc4)[nH]n3)C2)cc1 (configuration not stated) | u | u | -10% | 0 | -10% | 0%
COCc1ncc(C)n1C1CCCNC1 (configuration not stated) | i | 1% | -14% | -7 | 5% | -8%
CN1CC(=O)N(C2CCCNC2)Cc2c(NC3CCCCCC3)ncnc21 (configuration not stated) | u | -10% | 1% | -4 | 1% | x
Cc1cc(C)c(CNC(=O)c2c(C)sc3ccn(C)c(=O)c23)c(C)c1 | u | -12% | -2% | 9 | 4% | -2%
COc1ccc(CCNC(=O)C2CCc3nnc(CNC(=O)NC(C)(C)C)n32)cc1 (configuration not stated) | 4% | -6% | 10% | 13 | 6% | x
Cn1ccc(CN2CC(Oc3ccc(F)c(F)c3)C2)c1 | -9%[172 µM] | -9%[138 µM] | 6%[87.6 µM] | -5 | 9%[87.6 µM] | x
O=C(O)C[C@@H]1CCN(C(=O)C2CCCCC2)C[C@@H]1CCN1CCN(c2ccc(F)cc2)CC1 | i | i | -2% | 13 | 0% | 1%
N#Cc1cccc(CN2CCC(C3=NC(O)c4cc(F)ccc4N3)CC2)c1 (configuration not stated) | u | -22% | -8% | 19 | -2% | 3%
Cc1noc(-c2ccccc2Cl)c1C(=O)NCCCCc1ccccc1 | u | u | 12% | -6 | 6% | 2%
O=C(C1CCCO1)N1CCN(c2nc(-c3ccncc3)nc3c2CNC3)CC1 (configuration not stated) | u | -15% | -17% | 36 | -1% | 13%
O=C(Nc1ccccc1)Nc1cnc2c(c1)CCC2 | -7% | -28% | 77%[activator] | 19 | 0% | x
Cc1noc(C)c1S(=O)(=O)N1CC(n2cnnc2C2CCCO2)C1 (configuration not stated) | 0% | -5% | 2% | 13 | 0% | x
Cc1cc(C(F)(F)F)nn1CC(=O)N1CCC(Cn2c(C)cnc2-c2ccccc2)CC1 | -12% | -26% | -5% | 0 | 9% | x
Cc1ccccc1C(=O)NC1CCN(c2cc(-c3ccccc3)[nH]n2)CC1 | u | -25% | -14% | 23 | 7% | -8%
O=C(NCCc1ccccn1)c1cccnc1OC1CCNCC1 | 1% | -22% | 126%[activator] | 16 | 13% | 0%
CCn1nccc1C(=O)N1CCC2(CC1)NC(=O)N(c1ccc(F)cc1)N2 | u | -11% | -14% | 0 | -5% | 1%
CC(C)Oc1cccc2c1c(NC(=O)C1CC(=O)N(C)C1)nn2Cc1ccccc1 (configuration not stated) | i | u | 4% | 17 | u | 0%
CCCc1nn(-c2ccccc2C)c(OC(C)=O)c1-c1ccc(NC(=O)CC)cc1 | u | -25% | 31%[activator] | 13 | 12% | -8%
Cn1nc(C(=O)N2CCCn3nc(CO)cc3C2)c2ccccc2c1=O | i | i | 9% | 10 | 1% | 11%
O=C(NCc1ccccc1)C1Cn2cccc2C(=O)N1Cc1cccnc1 (configuration not stated) | i | 0% | -14% | -12 | -3% | -1%
CN1[C@@H](CCC(=O)NCc2ccc(F)cc2)CNC(=O)[C@@H]2[C@H]1CCN2Cc1ccc(C(F)(F)F)cc1 | u | u | -28% | 8 | -9% | 0%
COc1ccc(Cl)cc1C(=O)N1CCC2(CC1)NC(=O)N(c1ccccc1Cl)N2 | u | u | 1% | 16 | -10% | 17%
CN1CC(=O)N(C2CCCNCC2)Cc2c1ncnc2N1CCOCC1 (configuration not stated) | -6% | u | -6% | 1 | 2% | x
Cc1[nH]c(-c2ccccc2)nc1C(=O)N[C@H](c1cnn(C)c1)C1CC(O)C1 (some centres not stated) | -4% | -8% | -10% | 13 | 1% | 7%
CC(C)c1nc2ccccc2n1CC(=O)NC1CCCN(c2ncccn2)C1 (configuration not stated) | -15% | -6% | 4% | 16 | 1% | -7%
Cc1noc(-c2ccc(OC(F)(F)F)cc2)c1C(=O)NCc1cccc(Cl)c1 | u | -11% | -19% | 1 | u | -4%
CCN(CC)C(=O)c1cc2c(s1)CCC(C(=O)N1CCN(c3ccccc3)CC1)C2 (configuration not stated) | u | u | 9% | 8 | -2% | -13%
O=C(NCC1Cn2cccc2C(=O)N1Cc1ccccc1)c1cn[nH]c1-c1ccccc1 (configuration not stated) | -13% | -11% | 3% | -4 | -18% | 3%
Cc1ccccc1C(=O)N1C(C(=O)N2CCOCC2)COC12CCC(C)CC2 (configuration not stated) | -20% | -15% | -19% | -9 | -11% | -7%
CNC(=O)[C@@H]1CN(S(=O)(=O)c2cccc(Cl)c2)C[C@H]1C1CCN(C)CC1 | i | 4% | u | 1 | 12%[12.5 µM] | -4%
COCc1ccc(C(=O)N2CCN(C(C)=O)CC(O)C2)s1 (configuration not stated) | 2% | 1% | 8% | 0 | 3% | -2%
O=C(c1ccncc1)N1CCN(Cc2ccccc2-c2cccnc2)CC1 | -18% | -40% | 9% | 20 | 28%[12.5 µM] | x
CNC(=O)CCNc1c(-c2cccc(F)c2)nc2cnccn12 | 6% | i | 14% | 22 | u | -2%
Cc1noc(-c2ccc3c(c2)OCO3)c1C(=O)NCc1cccc(Cl)c1 | u | u | 5% | 1 | 8% | 3%
O=C1CCCCC(Cc2ccccc2)(C(=O)O)N1 (configuration not stated) | 1% | 4% | -26% | 3 | -9% | -9%
Cc1nnnn1CCCN1CCn2nc(CCC(=O)O)cc2C1 | 4% | -1% | 12% | 12 | 3% | -1%
COc1cccc(CNC(=O)C2Cn3cccc3C(=O)N2Cc2cccnc2)c1 (configuration not stated) | -6% | -1% | -23% | -14 | 4% | 8%
C[C@@H]1C(=O)O[C@H]2[C@H]1CC[C@@]1(C)Cc3sc(NCCc4ccccn4)nc3[C@@H](C)[C@H]21 | 35µM* | u | 33%[activator][87.6 µM] | -9 | -25%[87.6 µM] | 4.5µM*
COc1ccc(CN2CC(Oc3ccc(OC)cc3)C2)cc1 | u | -19%[138 µM] | -5%[87.6 µM] | -4 | 4%[87.6 µM] | x
COc1ccccc1-c1onc(C)c1C(=O)NCCc1ccc(F)cc1 | -20% | -35% | 5% | 7 | -10% | -8%
COc1ccc(-c2ccc3nc(-c4cccc(F)c4)oc3c2)c(OC)c1OC | u | -21% | 5% | 19 | 3% | u
NCCO[C@H]1C[C@@H](O)C12CCN(C(=O)Cn1cnnn1)CC2 | i | 3% | 4% | 15 | -1% | 2%
Cc1cccc(C(=O)N2CCCC(c3cc(N4CCOCC4)ncn3)C2)c1 (configuration not stated) | -8% | 1% | 5% | -9 | -15% | 9%
Cc1ccc(CN2CCC3(CC2)CCN(C(=O)C2CCC2)CC3CO)s1 (configuration not stated) | u | -24% | -16% | 12 | -1% | 13%
O=C(NC1CCCCC1)[C@@H]1C[C@@H](O)CN1C1CCN(C(=O)C2(c3ccccc3)CC2)CC1 | i | -6% | 8% | 29 | 10% | 0%
COCc1nc(C2CC(N)C2)cc(N2Cc3nc(C)n(C)c(=O)c3C2)n1 (configuration not stated) | u | -13% | -1% | -7 | 6% | -2%

In the list so far, these have sulfur.
mol | HEK293 tox | NIH3T3 tox | SNCA expr inhib | IP6K1 inh | HEK293 viab | FLuc inh
CN1CCC(C(=O)N2CCC3(CC2)CN(S(=O)(=O)c2ccccc2)CCO3)CC1 | -3% | i | 44%[activator] | 1 | 1% | x
Cc1ccc(S(=O)(=O)NC[C@H]2OC[C@@H](N(C)C)[C@@H]2O)cc1 | 4%[172 µM] | -2%[174 µM] | -11%[87.6 µM] | -9 | 6%[87.6 µM] | 3%[172 µM]
Cc1cc(C)c(CNC(=O)c2c(C)sc3ccn(C)c(=O)c23)c(C)c1 | u | -12% | -2% | 9 | 4% | -2%
Cc1noc(C)c1S(=O)(=O)N1CC(n2cnnc2C2CCCO2)C1 (configuration not stated) | 0% | -5% | 2% | 13 | 0% | x
CCN(CC)C(=O)c1cc2c(s1)CCC(C(=O)N1CCN(c3ccccc3)CC1)C2 (configuration not stated) | u | u | 9% | 8 | -2% | -13%
CNC(=O)[C@@H]1CN(S(=O)(=O)c2cccc(Cl)c2)C[C@H]1C1CCN(C)CC1 | i | 4% | u | 1 | 12%[12.5 µM] | -4%
COCc1ccc(C(=O)N2CCN(C(C)=O)CC(O)C2)s1 (configuration not stated) | 2% | 1% | 8% | 0 | 3% | -2%
C[C@@H]1C(=O)O[C@H]2[C@H]1CC[C@@]1(C)Cc3sc(NCCc4ccccn4)nc3[C@@H](C)[C@H]21 | 35µM* | u | 33%[activator][87.6 µM] | -9 | -25%[87.6 µM] | 4.5µM*
Cc1ccc(CN2CCC3(CC2)CCN(C(=O)C2CCC2)CC3CO)s1 (configuration not stated) | u | -24% | -16% | 12 | -1% | 13%

Source: PubChem BioAssay (National Center for Advancing Translational Sciences (NCATS))
